TRPML1 ag = agonists of human TRPML1 channel; Q9GZU1; TRPML1-expressing cells, Ca2+ dye fluorescence, FDSS; host cell line not named in the record; reference of the full effect not given here; activation, % (no concentration beside the values); hit rate 0.12% among 410,000; AID 624414; in the data active = activation above about 50%; inconclusive = about 30% to 50%; inactive = below about 30%; also: 0% is about no effect; the text of the record puts the active cut at 80%
Target sequence (Q9GZU1 whole entry, looked up): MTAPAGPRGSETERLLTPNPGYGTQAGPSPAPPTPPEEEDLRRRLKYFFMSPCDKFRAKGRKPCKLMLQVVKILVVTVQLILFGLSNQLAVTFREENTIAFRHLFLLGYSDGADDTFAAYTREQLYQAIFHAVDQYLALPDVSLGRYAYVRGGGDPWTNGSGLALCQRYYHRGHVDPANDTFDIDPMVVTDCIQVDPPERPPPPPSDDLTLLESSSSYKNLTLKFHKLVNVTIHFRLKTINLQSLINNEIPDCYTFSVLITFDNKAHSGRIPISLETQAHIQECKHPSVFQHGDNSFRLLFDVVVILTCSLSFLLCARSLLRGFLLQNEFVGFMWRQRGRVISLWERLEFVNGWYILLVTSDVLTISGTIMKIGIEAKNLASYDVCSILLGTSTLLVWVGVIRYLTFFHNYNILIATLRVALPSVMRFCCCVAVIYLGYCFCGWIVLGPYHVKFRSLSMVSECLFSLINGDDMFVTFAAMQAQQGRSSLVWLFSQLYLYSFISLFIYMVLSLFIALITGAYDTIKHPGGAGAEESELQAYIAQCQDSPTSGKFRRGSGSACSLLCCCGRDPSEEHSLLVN
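Kinetic FDSS Ca2+ read in Tet-induced TRPML1-DL cells (ABD Ca8 dye plus quencher, 45-90 min RT loading): baseline, then compound, then 110 s agonist window; EC80 agonist 54-4 at 4uM final added afterwards for a 110 s antagonist window.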
Sfp PPTase inh = blocks B. subtilis Sfp PPTase activity. hit rate 3.5% among 310,000. Potency, µM, for the others: max response, negative = inhibition, usual class: inhibitors. Biochemical Sfp PPTase activity, qHTS; active = well fitted inhibition curve with a large enough effect; inconclusive = small, poorly fitted or top-dose-only effect, or another doubt; inactive = no such curve, though single readings can be large or run the other way;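 also: the enzyme is Sfp with the accession as filed and its product quenches rhodamine fluorescence; potency is read from the fitted curve at half-maximal effect; 0% = enzyme reaction without inhibitor and -100% = no enzyme wells; top concentration of the series not given in the record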
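Sfp 15 nM + cpd, 15 min RT; start w/ rhodamine-CoA 5 uM, BHQ-2-YbbR 12.5 uM (final); 50 mM Hepes pH 7.6, 10 mM MgCl2, 0.01% NP-40, 0.01% BSA; read 525/598 nm at 0 and 30 min.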
Menin-MLL FL inh = displaces fluorescein MLL peptide from human menin. Fluorescence polarization, fluorescein-MLL peptide displacement from menin. AID 1766. FP activity change, % at 61.4 µM. 290,000 tested, under 10 active; inconclusive = falling polarisation curve, or a change in total fluorescence; inactive = total fluorescence flat and polarisation flat or rising; no compound was filed as active; the % refers to the polarisation; negative = inhibition;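 also: % of control where 0% means no effect; inhibitors lower the polarisation; unlabelled MLL peptide was the positive control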
ClpP mod = qHTS Assay for Activators of ClpP | purified B. subtilis ClpP, FRET peptide cleavage, 20 min | Potency, µM (highest dose often 57.5 µM), for inactives: at the top dose activity change, negative = active | hit rate 1.9% among 340,000 | ATP-dependent Clp protease proteolytic subunit (Bacillus subtilis (strain 168)), P80244; active = well fitted falling curve with a large enough effect; inconclusive = small, poorly fitted or top-dose-only effect; inactive = no such curve, though single readings can be large or run the other way; also: potency is read from the fitted curve at half-maximal effect; the source files actives as falling curves though it sought activators and does not explain the sign; nearly all actives have a fitted effect of over 65% in size; many hits overshoot -100%
Target sequence (P80244 whole entry, looked up): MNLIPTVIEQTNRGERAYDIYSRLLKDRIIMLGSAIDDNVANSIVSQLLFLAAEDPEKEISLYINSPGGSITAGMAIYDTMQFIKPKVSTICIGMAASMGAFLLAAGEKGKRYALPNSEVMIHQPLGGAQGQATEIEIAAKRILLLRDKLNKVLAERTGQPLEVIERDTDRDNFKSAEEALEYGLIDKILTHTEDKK
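ClpP 10 microg/mL final, pH 8 Tris/KCl buffer with BSA, glycerol, Tween-20; compound pinned in; FRET-FV substrate; RT 20 min; Ex320/Em430; ΔFRET vs ADEP 5.8 microM, DMSO, no enzyme.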
PINK1 expr mod = changes PINK1 expression | PINK1 immunofluorescence, high-content cytometry, 24 h | Potency, µM (top dose mostly 76.6 µM), inactives show top-dose activation (PINK1 increase), actives largely listed as activators | hit rate 0.2% among 410,000 | AID 624263; active = well fitted activation curve with a large enough effect; inconclusive = small, poorly fitted or top-dose-only effect; inactive = flat fitted curve, though single readings scatter; cell line not stated here;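 also: potency is read from the fitted curve at half-maximal effect; % of control where 0% means no effect; nearly all actives have a fitted effect of over 65% in size; a mitochondrial uncoupler was the plate control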
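PINK1 protein, normally rapidly degraded, was detected by immunofluorescence after 24 hour compound treatment of a stable cell line. Titration data (5 concentrations) came from laser-scanning cytometry, with CCCP-treated wells as controls.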
TRPML1 inh = human mucolipin-1 channel inhibition; TRPML1-inducible cells, Ca2+ dye fluorescence, FDSS; stronger effect = lower value; inhibition of EC80 agonist-evoked calcium signal; activity change, negative = inhibition, % (test concentration not listed); hit rate 0.02% among 390,000; AID 624415; in the data active means activity change below about -50%; inconclusive means about -30% to -50%; inactive means above about -30%;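 also: stimulus is agonist 54-4 at its EC80 concentration; % is scaled to controls: 0 for no effect and ±100 for the full control effect; compound concentration not given in the record; the text of the record puts the active cut at -80%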
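Tet-induced TRPML1-DL cells loaded with Ca8 no-wash calcium dye were read kinetically on FDSS. Compound addition was followed by EC80 agonist 54-4 (4 uM final); inhibition was read over 110 s.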
TRPV1 PAM = potentiators of human vanilloid receptor 1 (TRPV1); Q8NER1; TRPV1-expressing cells, Fluo-8 calcium influx, capsaicin EC20 potentiation; host cell line not named in the record; control for the full effect not named in the record; potentiation, % at 8.33 µM; hit rate 0.02% among 320,000; AID 540277; active means potentiation above 80%; inconclusive means 30% to 80%; inactive means below 30%; also: 0% is about no effect
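Fluo-8 calcium influx in TRPV1-expressing cells, kinetic read (ex 480/em 520 nm). Compound added and read 3 min for agonist activity, followed by capsaicin at EC20 final and 2 min further read for enhancement.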
Active calls of the source: *; ? = inconclusive; · = no result given; & = joins results of further samples; [ ] = another dose, or the depositor's remark.

SMILES	TRPML1 ag	Sfp PPTase inh	Menin-MLL FL inh	ClpP mod	PINK1 expr mod	TRPML1 inh	TRPV1 PAM
CCOc1ccc(N(CC(=O)Nc2ccc(C)cc2C)S(C)(=O)=O)cc1	1.2	17%	-2.1	-2.5%	-0.5%	0	0
O=C(c1ccccc1C(=O)N1CCN(c2ccccc2F)CC1)N1CCN(c2ccccc2F)CC1	0.3	19%	1.6	-0.6%	-0.7%	-2	4
CCOC(=O)c1cnc(SC)nc1Sc1ccc(Cl)cc1Cl	2.0	-1%	1.1	-4.9%	-1.2%	1	-1
O=C(CCN1C(=O)/C(=C/c2ccccc2)SC1=S)NNC(=O)c1ccncc1	-0.5	-8%	-0.2	·	6.5%	-19	6
COc1ccc(NC(=O)CSc2nc3ccccc3c(=O)n2CCCN2CCC(C)CC2)c(OC)c1	0.8	-7%	-3.0	·	2.6%	12	0
COC(=O)[C@]12CCCCC=C1N(CCC1=CCCCC1)C(=O)[C@H](CC(=O)N1CCCCC1)C2	-0.6	·	·	-1.9%	1.5%	·	·
COC(=O)C[C@@H]1C[C@@H]2c3cc(NS(=O)(=O)c4ccccc4)ccc3O[C@@H]2[C@@H](CO)O1	0.2	·	·	0.9%	1.5%	-8	·
COc1ccc(C2C(C(=O)N3CCN(c4ccccn4)CC3)CC(=O)N2c2ccc(OC)cc2)cc1 (stereo not drawn)	0.3	19%	1.0	-21%	-2.8%	-15	1
COc1cc(/C=N/NC(=O)c2cccc(NC(=O)c3ccccc3C)c2)ccc1O	0.6	8%	1.1	·	1.9%	-10	4
O=C(CN1CCN(c2ccc(Cl)cc2)CC1)Nc1ccc(Cl)c(C(F)(F)F)c1	0.3	·	·	-1.8%	0.8%	-1	·
CC1CCCN(Cc2nc3c(c(=O)n(C)c(=O)n3C)n2Cc2ccc(Cl)cc2)C1 (stereo not drawn)	-0.7	·	·	-2.8%	-0.6%	12	·
COc1ccc(NS(=O)(=O)c2c(C)cc(C)cc2C)cc1	0.3	-19%	-2.5	0.3%	4.9%	-6	4
Cc1ccccc1N1C(=O)C(Oc2ccc(Cl)cc2)C1CNCCCOC(C)C (stereo not drawn)	-0.3	3%	2.9	0.2%	-4.3%	-1	3
CC(C)Cn1c(N)c(C(=O)COC(=O)c2cnccn2)c(=O)n(C)c1=O	0.5	·	·	·	-2.7%	4	4
C/C(=N\NC(=O)c1cc(-c2ccncc2)nc2ccccc12)c1ccc(N2CCOCC2)cc1	1.0	5%	-5.1	-4.0%	9.0%	2	7
CC(C)N(C(=O)CS(=O)(=O)c1ccc(Cl)c(Cl)c1)C(C)C	-0.6	14%	-4.4	·	0.0%	-3	-27
COc1ccccc1CNC(=O)C1CC(c2ccccc2F)=NO1 (stereo not drawn)	-1.1	13%	-4.8	-0.4%	6.7%	9	-4
CCOc1ccccc1NS(=O)(=O)c1csc(C(N)=O)c1	-0.7	-2%	-14	0.2%	0.1%	42	19
COc1ccc(/C=C/C2=CCN(Cc3ccc(OC)cc3)CC2)cc1	0.3	4%	4.3	·	6.2%	10	-2
CCOC(=O)C1CCN(S(=O)(=O)c2ccc3[nH]c4c(c3c2)CCCC4)CC1	-1.1	5%	-2.0	-5.6%	1.2%	7	9
Cc1ccc(C(=O)NCCc2ccc(S(N)(=O)=O)cc2)cc1-n1cnc2cccnc21	0.6	·	·	-1.4%	-1.6%	8	·
COc1ccc(C)cc1NC(=O)CSc1nnc(CC(=O)Nc2ccccc2C)n1C	-0.7	13%	2.9	1.9%	-6.7%[38.3 µM]	-4	-3
O=C(CN1C(=O)NC2(CCc3ccccc32)C1=O)Nc1cccc(Cl)c1 (stereo not drawn)	0.3	·	·	0.7%	-0.3%	-4	·
CCOc1ccc(NC(=O)c2cnc3ccccn3c2=O)cc1	-0.8	·	·	-1.7%	-1.2%	-2	·

2 compounds drawn at random from those above:
SMILES	TRPML1 ag	Sfp PPTase inh	Menin-MLL FL inh	ClpP mod	PINK1 expr mod	TRPML1 inh	TRPV1 PAM
COc1ccc(/C=C/C2=CCN(Cc3ccc(OC)cc3)CC2)cc1	0.3	4%	4.3	·	6.2%	10	-2
CCOC(=O)C1CCN(S(=O)(=O)c2ccc3[nH]c4c(c3c2)CCCC4)CC1	-1.1	5%	-2.0	-5.6%	1.2%	7	9

Remaining list, next part.
SMILES	TRPML1 ag	Sfp PPTase inh	Menin-MLL FL inh	ClpP mod	PINK1 expr mod	TRPML1 inh	TRPV1 PAM
O=C(CNc1ccc2c(c1)OCO2)N/N=C\c1cn(Cc2ccccc2)c2ccccc12	2.3	-22%	0.2	1.0%	9.6%	26	2
CCOC(=O)c1c(NC(=O)CSc2nccc(=O)[nH]2)sc(C)c1C	-0.4	3%	·	-2.1%	-0.9%	-9	3
Cc1cccnc1NC(=O)c1ccc(NS(=O)(=O)/C=C/c2ccccc2)cc1	4.5	·	·	1.6%	-1.3%	10	4
COC(=O)C1=C(C)NC2=C(C(=O)CCC2)C1c1ccc(-c2ccsc2C(=O)OC)o1 (stereo not drawn)	0.9	-6%	0.0	-15%	1.9%	-7	-2
O=C(Cc1cc(=O)oc2cc(O)ccc12)NC(Cc1ccc(Cl)cc1)C(=O)O (stereo not drawn)	-0.4	3%	0.9	·	1.0%	54	-8
O=C(NCCCCc1ccccc1)C12CN(Cc3ccccc3)CC1C(c1ccc([N+](=O)[O-])cc1)=NO2 (stereo not drawn)	0.0	28µM*	-2.7	-0.6%	1.2%	-10	12
O=Cc1cccc(OC(=O)c2ccc(Cl)cc2Cl)c1	·	0%	-0.7	·	·	·	-3
CCNc1nc(NCC)n2c(SCC(=O)Nc3ccc(F)cc3)nnc2n1	0.0	·	·	-1.4%	-1.5%	12	10
Cc1cc(-c2ccccc2)n2nc(C)c(-c3ccccc3)c2n1	1.8	-17%	2.4	-1.9%	5.8%	11	-12
COCc1cccc(-c2csc(C(O)c3cccc(OC)c3)n2)c1 (stereo not drawn)	-1.0	·	·	-11%	0.7%	·	·
NCCCC[C@H]1CNC(=O)C(=O)N1CCc1cccc2ccccc12	0.1	14%	2.4	-1.0%	1.5%	-10	2
O=C(NCc1csc(-c2cccs2)n1)c1cccc(Cl)c1	-0.1	-8%	5.9	·	-0.6%	-24	-23
CCOC(=O)C1CCN(S(=O)(=O)c2cccc(-c3cn4cccnc4n3)c2)CC1	0.1	22%	-1.4	?	-0.2%	20	6
O=C1CCCN1C(=O)COc1cc(F)ccc1[N+](=O)[O-]	3.5	·	·	-0.5%	1.1%	4	-7
O=C(Nc1nnc(S(=O)(=O)N2CCCC2)s1)c1ccccc1Cl	-0.7&0.0	13%	0.2	-8.3%&-1.2%	-0.6%&1.9%	-5&-2	26
CC(C)COCC1CC2(CC(C)(c3csc(N)n3)OC2=O)C(=O)O1 (stereo not drawn)	-0.2	14%	-0.2	0.3%	-2.3%	-11	2
CS(=O)(=O)N(Cc1ccc(C(=O)NCc2ccco2)cc1)c1ccccc1	-0.3	-19%	2.7	0.4%	-2.4%	-4	16
COc1cccc(NC(=S)NC(Cc2ccccc2)c2ccccc2)c1 (stereo not drawn)	-0.9	·	·	-0.3%	?	-7	·
O=C1C=C(c2ccc(C(=O)O)cc2)C[C@@H](c2ccc(F)cc2)C1	-0.6	·	·	1.1%	-0.3%	4	·
COc1cc(/C=N/NC(=O)CSc2n[nH]c(=O)[nH]c2=O)cc(OC)c1O	0.0	5%	3.7	·	0.8%	3	-5
CC(C)NC(=O)COc1ccc(OCc2ccccc2)cc1	1.1	8%	-2.4	-0.6%	-1.0%	11	-5
COc1ccccc1CCC(=O)Nc1ccc(S(=O)(=O)Nc2nccs2)cc1	-0.4	·	·	-9.6%	0.0%	-2	9
Cc1ccc(S(=O)(=O)c2nc(NCCCn3ccnc3)sc2Cl)cc1	-0.2	21%	-1.0	-2.8%	-1.3%	12	-1
O=C(CNC(=S)N(CCCN1CCOCC1)Cc1cccs1)N1CCOCC1	0.2	11%	1.5	-2.4%	-1.2%	-7	-8
Cc1ccccc1S(=O)(=O)N1[C@@H](c2ccc(Cl)cc2)C(C(=O)O)=CC[C@H]1c1ccc(Cl)cc1	-0.3	·	·	-7.3%	-1.2%	13	·
Cn1c(=O)c2cc(C(=O)N3CCN(c4ccc(Cl)cc4)CC3)sc2c2ccccc21	0.1	·	·	0.1%	1.0%	-4	·
O=Cc1cc(-c2ccccc2)[nH]c1-c1ccccc1	-0.5	2%	4.6	·	2.7%	-5	-6
CCOc1ccc(C(C)=O)cc1CN1C(=O)c2ccccc2S1(=O)=O	-0.3	10%	·	1.4%	2.7%	1	-15
CC1(C)CC(=O)C(C=NCCCN2CCCC2=O)=C(O)C1	0.7	-19%	1.4	-5.1%	-1.1%[38.3 µM]	25	-10
COc1ccc(NC(=O)CCC2COc3ccccc3O2)c(OC)c1 (stereo not drawn)	1.9	12%	4.4	-2.4%	2.0%	20	6
COc1cccc(NC(=O)CSc2nc3ccccc3c(=O)n2CCCC(=O)NCCCN2CCOCC2)c1	1.5	9%	4.7	·	3.3%	9	17
Cc1cccc2sc(NC(=O)CN3C(=O)NC4(CCCC4)C3=O)nc12	1.8	11%	0.7	0.1%	-0.8%	11	-26
Cc1cccc(C(=O)Oc2ccccc2C(=O)N2CCOCC2)c1	-0.2	16%	2.6	1.6%	0.5%	3	5
O=C(CCOc1ccccc1)N(Cc1cccnc1)c1nc2ccc(F)cc2s1	0.5	·	·	-3.1%	15%	1	·
Cc1ccc(NC(=S)N(CCN(C)C)C(C)c2cccnc2)cc1 (stereo not drawn)	0.0	12%	-0.8	-3.3%	-1.6%	-2	15
Clc1c(Cl)c(Cl)c2n[nH]nc2c1Cl	0.9	8%	-0.1	·	?	-6	18
CS(=O)(=O)N(CCc1ccccc1)CC(=O)Nc1ccccc1	-0.1	33%[activator]	1.4	-1.8%	1.0%	-2	-2
CC(CO)(CO)NCc1ccc(-c2ccccc2)cc1	-0.4	-3%	5.1	1.2%	0.0%	9	-15
COc1cc2cc(CCOC(=O)c3ccc(C(F)(F)F)cc3)oc(=O)c2cc1OC	-0.1	·	·	-29%	6.4%	3	7
COc1ccc(C(CNC(=O)c2cc3c(s2)CCC(C)C3)N2CCCC2)cc1 (stereo not drawn)	0.8	·	·	-7.3%	2.9%	2	-13
COC(=O)[C@H](C(C)C)N(Cc1ccccc1)S(=O)(=O)CCN1CCCC1	-0.3	·	·	1.4%	0.8%	-14	·

Compounds were not picked by outcome. Share with any hit: about 4.4%.
